# Sfp inh: qHTS Assay for Inhibitors of Bacillus subtilis Sfp phosphopantetheinyl transferase (PPTase); Biochemical Sfp PPTase activity, qHTS; actives 3.5% (n = 310,000); AID 1490, 2009; Potency, µM, inactives show max response, negative = inhibition, hits mostly inhibitors; active means well fitted inhibition curve with a large enough effect; inconclusive means small, poorly fitted or top-dose-only effect, or another doubt; inactive means no such curve, though single readings can be large or run the other way;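 further: the enzyme is Sfp with the accession as filed and its product quenches rhodamine fluorescence; potency means the concentration at half of the fitted maximal effect; 0% = enzyme reaction without inhibitor and -100% = no enzyme wells; top concentration of the series not given in the record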
#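 Buffer: 50 mM Hepes-Na pH 7.6, 10 mM MgCl2, 0.01% Nonidet P-40, 0.01% BSA. Enzyme 15 nM, pre-exposed to compound 15 min; substrates then added and fluorescence change tracked over 30 min.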
# ClpP mod: qHTS Assay for Activators of ClpP; AID 651965, 2013; actives 1.9% (n = 340,000); ATP-dependent Clp protease proteolytic subunit (Bacillus subtilis (strain 168)), P80244; Potency, µM (titrated, usually from 57.5 µM), inactives show at the top dose activity change, negative = active; purified B. subtilis ClpP, FRET peptide cleavage, 20 min; active = well fitted falling curve with a large enough effect; inconclusive = small, poorly fitted or top-dose-only effect; inactive = no such curve, though single readings can be large or run the other way; further: potency means the concentration at half of the fitted maximal effect; the source files actives as falling curves though it sought activators and does not explain the sign; nearly all actives have a fitted effect of over 65% in size; many hits overshoot -100%
# Target sequence (P80244 whole entry, looked up): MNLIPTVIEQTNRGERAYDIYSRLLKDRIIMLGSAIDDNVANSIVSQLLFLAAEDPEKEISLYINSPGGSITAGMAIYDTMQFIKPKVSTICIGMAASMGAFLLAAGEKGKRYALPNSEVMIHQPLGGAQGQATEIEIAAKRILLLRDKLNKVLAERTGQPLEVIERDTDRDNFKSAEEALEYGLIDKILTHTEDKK
#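 Buffer: 100 mM Tris/HCl pH8, 100 mM KCl, 0.05% low protease BSA, 2.5% glycerol, 0.01% Tween-20. ClpP 10 microg/mL final; 20 min RT; delta FRET normalized to ADEP and DMSO controls.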
# gsp antag: qHTS for Antagonists of gsp, the Etiologic Mutation Responsible for Fibrous Dysplasia/McCune-Albright Syndrome: qHTS; gsp-mutant cells, cAMP HTRF, 30 min; control for the full effect not named in the record; Potency, µM (top dose mostly 76.9 µM), without a hit: at the highest dose activity change, negative = inhibition, hits mostly inhibitors; actives 0.4% (n = 340,000); active = falling curve of any shape with a large fitted effect; inconclusive = falling curve, mostly with a smaller effect; inactive = flat or rising curve; cell line not stated here;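 further: intracellular cAMP measured with PDE inhibitor Ro 20-1724 present during compound exposure; potency means the concentration at half of the fitted maximal effect; on the % scale 0 is the no-effect control and ±100 the full control effect; nearly all actives have a fitted effect of over 65% in size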
#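 Cells, 2000/well, grown 16–24 h in DMEM 10% FBS with 0.5 mg/ml G418, then compounds plus […] (300 uM addition stock), 30 min at 37C. cAMP read by HTRF (cAMP-d2 and anti-cAMP antibody-K in lysis buffer) after 30 min RT.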
# TRPML1 blocker: qHTS for Inhibitors of the Human Mucolipin Transient Receptor Potential 1 (TRPML1); activity change, negative = inhibition, % (concentration not given with the values); actives 0.02% (n = 390,000); TRPML1-inducible cells, Ca2+ dye fluorescence, FDSS; stronger effect = lower value; inhibition of EC80 agonist-evoked calcium signal; in the data active means activity change below about -50%; inconclusive means about -30% to -50%; inactive means above about -30%;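 further: stimulus is agonist 54-4 at its EC80 concentration; on the % scale 0 is the no-effect control and ±100 the full control effect; compound concentration not given in the record; the text of the record puts the active cut at -80%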
# Target sequence (Q9GZU1 whole entry, looked up): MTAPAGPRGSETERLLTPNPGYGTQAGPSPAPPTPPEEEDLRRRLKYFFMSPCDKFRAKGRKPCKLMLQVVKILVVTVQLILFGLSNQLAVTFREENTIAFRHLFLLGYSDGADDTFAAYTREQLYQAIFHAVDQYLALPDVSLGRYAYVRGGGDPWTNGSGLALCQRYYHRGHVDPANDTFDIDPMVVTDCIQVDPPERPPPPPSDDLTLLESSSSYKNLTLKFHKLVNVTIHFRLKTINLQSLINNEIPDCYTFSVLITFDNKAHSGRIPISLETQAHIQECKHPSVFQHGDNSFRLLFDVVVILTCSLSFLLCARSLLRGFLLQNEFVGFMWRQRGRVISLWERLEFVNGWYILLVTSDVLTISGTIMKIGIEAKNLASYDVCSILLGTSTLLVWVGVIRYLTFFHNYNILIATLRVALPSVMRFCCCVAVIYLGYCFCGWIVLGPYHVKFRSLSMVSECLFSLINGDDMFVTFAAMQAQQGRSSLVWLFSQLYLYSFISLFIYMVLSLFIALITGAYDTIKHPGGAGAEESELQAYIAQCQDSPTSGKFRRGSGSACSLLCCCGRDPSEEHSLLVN
#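 Calcium fluorescence in TRPML1-DL cells induced overnight with Tet: a 110 s read after compound pin addition, then a 110 s antagonist read after challenge with 54-4 at 4 uM final (EC80).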
# TRPV1 PAM: HTS Assay for Compounds that Act as Potentiators of the Vanilloid Receptor 1; Transient receptor potential cation channel subfamily V member 1 (Homo sapiens), Q8NER1; TRPV1-expressing cells, Fluo-8 calcium influx, capsaicin EC20 potentiation; host cell line not named in the record; control for the full effect not named in the record; potentiation, % at 8.33 µM; actives 0.02% (n = 320,000); active means potentiation above 80%; inconclusive means 30% to 80%; inactive means below 30%; further: 0% is about no effect
#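 Cells expressing TRPV1 were dye-loaded with Fluo-8 and read kinetically: 10 s baseline, 3 min after compound (agonist portion), then 2 min after EC20 capsaicin (allosteric enhancer portion). Calcium-bound dye fluorescence at 480/520 nm.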
# gsp agonist: qHTS for Agonist of gsp, the Etiologic Mutation Responsible for Fibrous Dysplasia/McCune-Albright Syndrome: qHTS | gsp mutant cells, cAMP HTRF, 30 min; control for the full effect not named in the record | Potency, µM (highest dose often 76.9 µM), for inactives: at the top dose activation (cAMP increase), actives largely listed as activators | actives 0.13% (n = 340,000) | AID 624287, 2012; active = well fitted activation curve with a large enough effect; inconclusive = small, poorly fitted or top-dose-only effect, or another doubt; inactive = no such curve, though single readings can be large or run the other way; cell line not stated here;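 further: phosphodiesterase inhibitor Ro 20-1724 added with compounds to block cAMP breakdown; potency means the concentration at half of the fitted maximal effect; nearly all actives have a fitted effect of over 60% in size; about a fifth of the inactives were tested at one dose only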
#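 Cells stably selected in G418 were plated at 2000/well, grown 16-24 hr, then given compounds in DMSO with the PDE inhibitor […] (300 uM solution added) for 30 min at 37C; cAMP was read by HTRF.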
# Menin MLL FP FL: qHTS Assay for Inhibitors Targeting the Menin-MLL Interaction in MLL Related Leukemias: Competition With Fluorescein Labeled MLL-derived Peptide; FP activity change, % at 61.4 µM; 290,000 tested, under 10 active; Fluorescence polarization, fluorescein-MLL peptide displacement from menin; inconclusive = falling polarisation curve, or a change in total fluorescence; inactive = total fluorescence flat and polarisation flat or rising; no compound was filed as active; the % refers to the polarisation; negative = inhibition;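 further: % of control where 0% means no effect; inhibitors lower the polarisation; unlabelled MLL peptide was the positive control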
# * = called active by the depositor; u = inconclusive; x = no result given; [ ] = dose if it differs, or a comment.
SMILES,Sfp inh,ClpP mod,gsp antag,TRPML1 blocker,TRPV1 PAM,gsp agonist,Menin MLL FP FL
C/C(=N/OC(=O)CC(C)C)c1cc(-c2ccc(Cl)cc2)no1,21%,-0.2%,-5%,-1,-4,19%,-0.3
NC(=S)NN=Cc1cc(-c2cccc(N)c2)ccn1,x,2.4%,x,-11,x,-4%,x
CCO[C@H]1OC(C(N)=O)=C[C@@H](c2ccc(Br)cc2)[C@@H]1CCCO,u,0.3%,-1%,-14,-17,x,-3.5
Cc1ccc(C(=O)O/N=C(\N)Cc2cccc3ccccc23)cc1,4%,x,5%,31,0,16%,x
Cc1ccc(S(=O)(=O)N2CCOCC2)cc1NC(=O)CSc1nc(N)cc(N)n1,x,1.3%,-3%,6,4,-27%,x
Cc1ccc(-c2nn(CCC(=O)O)cc2CCC(=O)O)cc1,23%,-0.5%,7%,-6,-16,1%,3.5
O=c1[nH]c(-c2cccnc2)nc2ccccc12,10%,-1.2%,12%,18,4,1%,1.7
COc1ccc2nc3sc(C(=O)NCCN4CCc5ccccc5C4)cc3cc2c1,-5%,32%,-14%,21,-12,-71%[inhibitor],8.3
CN(C)C(=O)CN1C(=O)C2CC=C(Cl)CC2C1=O (centres undefined),0%,-2.4%,-13%,9,9,-58%[inhibitor],-0.9
O=C(CSc1nnc(NC(=O)c2cccc(F)c2)s1)NCC1CCCO1 (centres undefined),2%,-0.3%,-17%,16,6,-25%,x
CSc1cccc(NC(=O)N2CCCC(CNS(=O)(=O)Cc3ccccc3)C2)c1 (centres undefined),-6%,x,-32%,10,-4,5%[15.4 µM],1.5
NCC(=O)Nc1ccc(Cl)cc1C(=O)c1ccc[nH]1,17%,0.4%,-1%,-4,9,27%,1.1
COc1cccc(NC2=C(C#N)C(=O)NC(c3cccc(OC)c3O)S2)c1 (centres undefined),25µM*,-0.7%,4%,-10,4,-23%,6.0
COC(=O)[C@@]12CCCN1[C@H](c1ccc(-c3ccccc3)c(OC)c1)[C@H]1C(=O)N(C)C(=O)[C@H]12,x,-1.2%,-2%,5,x,-1%,x
C=Cn1c(C(=O)O)ccc1-c1ccc(OC)cc1,-5%,x,3%,-1,-4,-4%,-1.8
C=CCNc1nc(SC)nc2ccsc12,9%,2.8%,5%,8,3,-14%,1.1
CN1C(=S)SC(N(O)C(=O)Nc2ccc(Cl)c(Cl)c2)C1(C)C (centres undefined),-10%,-2.5%,-3%,16,-5,19%,0.5
COC(=O)CN(C#N)c1nc(SC)nc(N(C)C)n1,6%,-0.4%,0%,4,0,-22%,-2.3
C=CCN1C(=O)/C(=C2/Sc3ccccc3N2C)SC1=Nc1ccccc1C,-12%,-0.6%,12%,20,7,-1%,5.0
CC(=O)O[C@H]1[C@@H](O)[C@H](O)[C@H](Oc2c(O)c(C)c3c4c2[C@@H](C)CC[C@@H]4[C@@H](C)C[C@H]3C=C(C)C)O[C@H]1C,x,0.8%,-3%,9,x,x,x
Cc1nn(Cc2ccccc2)c2sc(C(=O)N3CCN(Cc4ccc5c(c4)OCO5)CC3)cc12,-14%,1.0%,-17%,-5,-5,-8%,0.6
COc1ccc(C(=O)N2CCOC23CCN(c2ncccn2)CC3)cc1,18%,x,6%,-9,3,-2%,-1.9
Cc1ccc(S(=O)(=O)N2CCN(Cc3ccccn3)CC2)cc1,50µM*,0.2%,3%,4,-11,11%,2.0
CN(Cc1cn[nH]c1-c1cc2ccccc2o1)CC1CCOCC1,9%,-3.7%,9%,-6,5,-30%[inhibitor],-5.3
CC(C)COc1ccc(C(=O)NC(Cc2c[nH]c3ccccc23)C(=O)NN)cc1 (centres undefined),1%,0.9%,7%,9,11,28%,1.2
Cn1ccsc1=NC(=O)c1ccccc1F,18%,x,3%,1,-1,-10%[15.4 µM],-1.6
O=C(COC(=O)CCc1nc2ccccc2s1)Nc1cccc(S(=O)(=O)N2CCOCC2)c1,-7%,0.4%,-12%,-15,9,-1%,-0.5
CCCSc1cc(=O)n(-c2ccccc2)nc1C(=O)OCC,2%,0.0%,-4%,10,-14,-6%,-1.7
C=CCNC(=O)c1ccc(-c2nc(-c3ccc(Cl)c(Cl)c3)cs2)cc1,-5%,-2.1%,2%,-10,5,-16%,7.5
Cc1cccc(C)c1OCCCN1CCOCC1,-9%,-18%,-10%,-16,-16,12%[15.4 µM],-7.0
CCN(CC)S(=O)(=O)c1cc(NC(=O)c2cc(-c3ccccn3)nc3ccccc23)ccc1C,3%,-2.8%,-18%,-5,-1,-17%,0.4
CC(C)c1ccc(N=c2c([N+](=O)[O-])nn(-c3ccc4c(c3)OCCO4)n2O)cc1,6%,-0.5%,-18%,0,5,-64%[inhibitor],-1.7
COc1ccc(S(=O)(=O)Nc2ccccc2C(=O)NCc2cccnc2)cc1C,10%,x,x,14,11,4%[15.4 µM],1.7
Cc1cc(Nc2ccc(C(=O)N3CCCCC3)cc2)c2cccc(C)c2n1,10%,-3.7%,7%,18,-8,-3%,1.0
COC(C[C@H](O)C[C@H](O)[C@@H](C)OCc1ccccc1)OC,x,1.1%,0%,15,x,x,x
COc1ccc(NC(=O)c2ccccc2)c([N+](=O)[O-])c1,0%,x,-2%,8,-10,0%[15.4 µM],-1.5

# Whole records, looked up by structure. Order of screens: Sfp inh	ClpP mod	gsp antag	TRPML1 blocker	TRPV1 PAM	gsp agonist	Menin MLL FP FL
# `CCCSc1cc(=O)n(-c2ccccc2)nc1C(=O)OCC` as listed: 2%	0.0%	-4%	10	-14	-6%	-1.7
# `COc1ccc(NC(=O)c2ccccc2)c([N+](=O)[O-])c1` as listed: 0%	x	-2%	8	-10	0%[15.4 µM]	-1.5

# More compounds.
SMILES,Sfp inh,ClpP mod,gsp antag,TRPML1 blocker,TRPV1 PAM,gsp agonist,Menin MLL FP FL
CCCn1c(N)c(N(CCOC)C(=O)c2cc(Cl)nc3ccccc23)c(=O)[nH]c1=O,x,1.2%,10%,2,-13,3%,x
O=C(CCc1nnc2ccc(NCc3ccco3)nn12)Nc1cccc(F)c1,1%,-0.3%,-12%,11,-14,u,x
COC(=O)c1sccc1NC(=O)c1sccc1C,17%,-15%,-3%,-28,29,-2%,0.3
CCOC(=O)c1ccc(NC(=O)c2cccc3c2C(=O)N(CC2CCCO2)C3)cc1 (centres undefined),-31%,-6.3%,u,-4,11,3%,1.4
O=C(CN1CCN(C2CCCCC2)CC1)NCCC1=CCCCC1,79µM*,0.3%,7%,7,3,-22%,-5.4
Cn1c(N)c(C(=O)COC(=O)/C=C/c2cccc(C(F)(F)F)c2)c(=O)n(C)c1=O,x,-4.3%,0%,-5,-32,u,x
O=C(CSc1cccc[n+]1[O-])Nc1cccc(S(=O)(=O)NC2=NCCCCC2)c1,9%,-1.2%,12%,5,1,29%,1.6
CC(=O)N1c2ccc(S(=O)(=O)N3CCCC(C(=O)Nc4ccc(C)cc4C)C3)cc2CC1C (centres undefined),-6%,0.4%,-9%,1,-3,15%,-5.6
COc1cc(-c2cn(S(=O)(=O)c3cccc4nsnc34)nc2N)cc(OC)c1OC,6%,-7.7%,-2%,14,11,-16%,-3.0
COc1cccc(NC(=O)c2ccncc2)c1,-2%,0.7%,-11%,-9,17,-26%,1.8
Cc1cc(C(=O)OCC(=O)N2CC(C)CC(C)C2)c(C)o1 (centres undefined),-3%,-1.5%,8%,3,-12,-34%[inhibitor],1.8
Cc1ccccc1N1CCN(C2CCCN(C(=O)c3ccnn3C)C2)CC1 (centres undefined),3%,2.6%,2%,-23,-4,21%,-5.4
COCCN(C(=O)COC(=O)CCSc1ccc(F)cc1)c1c(N)n(Cc2ccccc2)c(=O)[nH]c1=O,x,-0.9%,7%,-5,8,5%,x
Cc1cc2c(NCCc3ccccc3)ncnc2s1,-6%,x,-23%,18,-5,-4%,-3.5
O=C(/C=C/c1ccc(Cl)c([N+](=O)[O-])c1)c1ccc(O)cc1,-9%,x,-15%,-24,-2,10%[15.4 µM],2.6
CCOC(=O)Cc1csc(NC(=O)CN(C)S(=O)(=O)c2ccc3c(c2)CCC(=O)N3)n1,u,-1.0%,-9%,8,9,-7%,-0.4
COc1ccccc1CN1C(=O)c2ccncc2C1=O,18%,0.7%,1%,-9,18,-37%,0.9
Cc1cccc(NC(=O)CN2C(=O)CNC2=O)c1,3%,-4.5%,7%,-5,4,-2%[15.4 µM],6.2
Cc1c(N2C(=O)/C(=C/c3ccccc3)SC2=S)c(=O)n(-c2ccccc2)n1C,-25%,-2.1%,-38%,38,3,-23%,3.6
Nc1ncnc2c1CN(Cc1ccccc1)CC2,x,x,6%,8,x,-33%[inhibitor],x
O=C(CSc1nncn1-c1ccccc1)N1CCCC1,8%,x,2%,-22,0,8%,0.5
Cc1c(C(=O)C(C)C)n(C)c2ccccc12,8%,-3.3%,u,-11,1,-33%[inhibitor],4.4
CN(C(=O)c1cccc(NC(=O)C2CCN(C(=O)OC(C)(C)C)CC2)c1)C1CCC1,x,2.2%,-5%,-17,x,23%,x
COc1ccc(/C=C2\SC(=O)N(CCNC(=O)C3CC4C=CC3C4)C2=O)cc1 (centres undefined),19%,x,-20%,-16,-7,-2%[15.4 µM],0.4
CCN1CCN(c2nc3c(C)cccn3c(=O)c2/C=C(\C#N)C(=O)NC)CC1,8%,1.0%,0%,46,11,33%[15.4 µM],-5.6
O=C(NCc1ccc2c(c1)OCO2)c1c(F)c(F)c(F)c(F)c1F,5%,-2.1%,10%,7,-10,2%,-4.5
O=C(Nc1ccc(C(=O)N2CCCCC2)cc1)c1ccccc1Cl,13%,-0.4%,4%,-12,-6,-48%[inhibitor],x
CCOC(=O)c1c(NC(=O)C2CC=CCC2C(=O)O)sc(C)c1CC (centres undefined),4%,-15%,-20%,15,22,26%,4.8

# Screening results (PubChem BioAssay)
